# From PubChem
# WNV NS2B-NS3 inh: WNV NS2B-NS3 proteinase inhibition; z-score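 (tested at a level between 10 and 100 µM)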; WNV NS2B-NS3 protease, fluorogenic substrate Ex360/Em465; hits give low values; AID 577; P06935; 0.18% of 65,000 active;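 active = z-score at -3 or under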;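 also: score is relative to mean and spread of the compound wells of a plate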
# Target sequence (P06935 1371-1501 limits assumed): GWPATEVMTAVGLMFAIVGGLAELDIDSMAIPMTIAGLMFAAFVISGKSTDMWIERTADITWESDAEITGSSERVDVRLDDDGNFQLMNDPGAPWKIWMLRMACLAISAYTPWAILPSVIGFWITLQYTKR
# Target sequence (P06935 1502-1679 limits assumed): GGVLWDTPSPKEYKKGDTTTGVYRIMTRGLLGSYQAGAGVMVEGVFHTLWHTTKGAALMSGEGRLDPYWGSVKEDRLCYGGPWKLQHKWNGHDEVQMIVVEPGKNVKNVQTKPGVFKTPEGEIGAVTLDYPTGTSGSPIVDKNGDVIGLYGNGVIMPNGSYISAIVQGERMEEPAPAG
# Hsc70: small molecules displacing fluorescent ligand from Hsc70 – biochemical, fluorescence polarization, primary screen (AID 568). Hsc70 fluorescence polarization, probe displacement; higher % means a stronger effect; strong numbers were not always called active. displacement, % at 20 µM, or IC50 in µM where a hit was titrated. 83,000 tested, under 10 active;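 active = displacement above 50% without optical interference and an IC50 on retest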;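 also: ATPase domain with a fluorescein-tagged ATP probe; 0% = vehicle and 100% = excess ADP; read after one hour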
# MT1-MMP promoter: MT1-MMP gene expression reporter suppression – cell-based, luciferase reporter, luminescence (AID 618). MT1-MMP promoter luciferase reporter cells, luminescence. calls from a first round at 10 µM; hits with a dose series show EC50 in µM. 0.62% of 87,000 active;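 active = over half of the reporter light lost at 10 µM or EC50 under 50 µM; inactive = the rest and hits that failed the dose series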;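 also: actives suppress MT1-MMP promoter-driven transcription so potencies describe inhibitors; HT1080 fibrosarcoma cells; overnight exposure; toxic or luciferase-blocking compounds were not removed from the actives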
# An asterisk follows results filed as active; i = inactive; . = not tested or not shown. Outcome played no part in choosing rows; about 0.8% have a hit in one of these screens.
SMILES,WNV NS2B-NS3 inh,Hsc70,MT1-MMP promoter
CCC(C)(C)n1nnnc1C(c1cc(OC)ccc1OC)N1CCC(C(N)=O)CC1 (stereo not given),.,0.7%,i
CC(=O)NCCc1cc2cc(C)c(C)cc2[nH]c1=O,-0.03,-0.3%,i
CCOC(=O)N1CCC(N2C(=O)c3ccccc3C2Nc2ccc3c(C)cc(=O)oc3c2)CC1 (stereo not given),7,1.6%,i
CNC(=O)c1nnc(Cc2ccc(F)cc2)o1,-3.15*,2.2%,i
CCOC(=O)c1sc(NC(=O)CSc2ncn[nH]2)c(C#N)c1C,-1.54,-6.0%,i
CCCn1cc(S(=O)(=O)CC(=O)Nc2ccc(OCC)cc2)c2ccccc21,-0.41,2.8%,i
CC(C(=O)Nc1ccccc1F)N1C(=O)c2ccccc2C1=O (stereo not given),-1.06,2.9%,i
Cc1cccc2cc(CN(Cc3nnnn3C3CCCC3)C3CCCCC3)c(=O)[nH]c12,0.17,-1.7%,i
COc1cc(S(=O)(=O)NCC2CCCO2)c(OC)cc1Cl (stereo not given),1.53,0.8%,i
Cc1ccc(C)c(C(=O)CN2C3=NCCCN3c3ccccc32)c1,.,-0.3%,i
O=C(NCCN1CCOCC1)c1cccs1,1.54,-5.1%,i
COc1ccccc1Oc1coc2c(CN(C)C)c(O)ccc2c1=O,.,0.3%,i
COC(=O)c1[nH]c(C)c(/C(O)=C2\C(=O)C(=O)N(CCN(C)C)C2c2ccc(OC)cc2)c1C (stereo not given),-1.98,-2.3%,i
CCOc1ccc(N=C2C(=O)N(CN3CCOCC3)c3ccccc32)cc1,-1.15,-1.6%,i
N#Cc1nc(-c2ccco2)oc1N1CCCC1,-0.86,2.0%,i
CCOC(=O)c1ccccc1NS(=O)(=O)c1ccc(S(=O)(=O)N2CCCC2)cc1,-0.15,3.4%,i
CCCC(C)NC(=O)c1ccc2[nH]c3c(c2c1)CC(C)CC3 (stereo not given),.,-3.1%,i
Cc1cc(=O)[nH]c(SCC(=O)Nc2ccc(Cl)cn2)n1,.,-0.9%,i
CC(=O)N(/N=C1\Sc2ccccc2C1=O)c1ccccc1C,.,21.1%,i
CCc1ccc(S(=O)(=O)c2n[nH]n3c2nc(=O)c2ccccc23)cc1,.,-7.7%,i
COc1ccc(NC(=O)CCN2CC(C)OC(C)C2)c(OC)c1 (stereo not given),.,3.4%,i
COc1cc(C2Nn3c(nnc3-c3ccccc3OC)S2)ccc1O (stereo not given),.,-0.3%,i
CC(C)c1nnc(NC(=O)C2CCN(c3cnccn3)CC2)s1,.,0.7%,i
CCN1CCCC1CNC(=O)Cn1cccc1C(=O)c1ccccc1C (stereo not given),-0.19,-4.0%,i
COc1ccccc1NC(=O)COC(=O)CNC(=O)c1ccc(OC)c(OC)c1,0.02,-2.4%,i
CSc1ccccc1C(=O)Nc1nccs1,.,-1.5%,i
Oc1c(Br)cc(C2N=C(c3ccccc3Cl)NO2)cc1Br (stereo not given),.,4.6%,i
O=C(c1ccc(NS(=O)(=O)c2cccs2)cc1)N1CCCCC1,0.76,3.2%,i
CN(C)S(=O)(=O)c1ccc(C(=O)Nc2nnc(Cc3ccccc3)s2)cc1,-0.59,4.8%,i
CCOC(=O)c1c(C)c(C(=O)Nc2ccc3c(c2)OCO3)c(C)n1C,-1.63,1.9%,i
COc1ccc(CC(=O)NCc2cccs2)cc1,1.25,0.2%,i
Cc1noc(C)c1COc1ccc(C(=O)NCC2CCCO2)cc1 (stereo not given),.,2.6%,i
COCCNC(=O)c1cc2c(-c3ccc(Cl)cc3)nn(C)c2s1,0.99,3.8%,i
Cc1onc(-c2ccccc2Cl)c1C(=O)Nc1ccc2c(c1)OCO2,2.22,2.3%,i
O=C(CN(C(=O)CCC(=O)Nc1ccccn1)c1ccc2c(c1)OCCO2)NCCc1ccccc1,3.03,0.3%,i
Cc1cccc(Cn2c(N3CCCCC3C)nc3c2c(=O)[nH]c(=O)n3C)c1 (stereo not given),-0.07,0.5%,i
Cc1ccccc1-n1nnnc1SCc1csc(-c2ccccc2)n1,0.11,5.5%,i
COc1ccccc1OCCNc1nc2c(c(=O)n(C)c(=O)n2C)n1C,.,0.5%,i
Cc1cnc(C(=O)Nc2ccccc2-n2cccc2)cn1,-0.32,-2.0%,i
CCOc1cc(S(=O)(=O)NCc2ccc(OC)cc2)c(OCC)cc1-n1cnnn1,.,-2.7%,i
Cc1c(C(=O)NCc2cccnc2)oc2ccc(S(=O)(=O)N3CCCCC3)cc12,0.06,-2.0%,i
Cc1c(C(=O)O)oc2ccc(S(=O)(=O)NCCC3=CCCCC3)cc12,-0.86,-5.9%,i
COCc1nnc(SCC(=O)NCc2ccccc2)n1-c1ccccc1,0.12,1.8%,i
CCCCCCn1c(CN2CCN(C(=O)OCC)CC2)nc2c1c(=O)n(C)c(=O)n2C,0.52,-1.8%,i
Cc1ccc(-c2nc(CSCC(=O)NCc3cccnc3)c(C)o2)cc1,0.87,-2.6%,i

# Molecules above containing a thiophene ring, fused or not:
SMILES,WNV NS2B-NS3 inh,Hsc70,MT1-MMP promoter
CCOC(=O)c1sc(NC(=O)CSc2ncn[nH]2)c(C#N)c1C,-1.54,-6.0%,i
O=C(NCCN1CCOCC1)c1cccs1,1.54,-5.1%,i
O=C(c1ccc(NS(=O)(=O)c2cccs2)cc1)N1CCCCC1,0.76,3.2%,i
COc1ccc(CC(=O)NCc2cccs2)cc1,1.25,0.2%,i
COCCNC(=O)c1cc2c(-c3ccc(Cl)cc3)nn(C)c2s1,0.99,3.8%,i

# Following part
SMILES,WNV NS2B-NS3 inh,Hsc70,MT1-MMP promoter
O=C(CSc1nnc2scc(-c3ccccc3)n12)N1CCCc2ccccc21,-1.37,-4.6%,i
CCOc1ccccc1C1CC(c2ccccc2)Nc2nc(N)nn21 (stereo not given),-1.93,-0.3%,i
CCOc1ccc(C2NC(=O)C(C#N)=C(S)N2c2ccc(OC)cc2)cc1OC (stereo not given),.,1.3%,i
COC(=O)C1C(=O)c2c([nH]c(C(=O)OC3CCCCC3)c2C)CC1C (stereo not given),-1.52,3.9%,i
COc1cc(NCCCC(C)N)c2ncccc2c1 (stereo not given),0.09,6.0%,i
CC1(C)CC(=O)c2cn3ncnc3nc2C1,.,-5.7%,i
O=C1CCCc2c1cc(C(=O)Nc1ccc(Br)cn1)c(=O)n2-c1ccccc1,0.6,-4.4%,i
O=C(O)COc1c(F)c(F)c(C(F)(F)F)c(F)c1F,-0.51,-5.6%,i
COc1ccc(NC(=O)C2CCCN(S(=O)(=O)c3cccnc3)C2)cc1 (stereo not given),-0.94,2.4%,i
CC1CC(C)CN(Cc2nc(N)nc(Nc3ccc4ccccc4c3)n2)C1 (stereo not given),-0.99,-4.8%,i
COc1ccc(CCNS(=O)(=O)c2ccc(F)cc2)cc1OC,-0.37,5.4%,i
CCOC(=O)CCCn1nc(C)n2c(cc3sccc32)c1=O,0.29,3.9%,i
CC(C)Cc1nc(NCCN2CCOCC2)c(C#N)c2c1COC(C)(C)C2,-0.89,0.0%,i
CCN(CC)C(=O)CSC1=C(C#N)C(c2ccco2)C(C(=O)OCCOC)=C(C)N1 (stereo not given),-0.13,-2.0%,i
COC(=O)c1ccc(C2/C(=C(/O)c3ccc(OC)cc3)C(=O)C(=O)N2Cc2ccco2)cc1 (stereo not given),-0.88,-1.8%,i

# Molecules listed so far that contain bromine, in the order listed:
SMILES,WNV NS2B-NS3 inh,Hsc70,MT1-MMP promoter
Oc1c(Br)cc(C2N=C(c3ccccc3Cl)NO2)cc1Br (stereo not given),.,4.6%,i
O=C1CCCc2c1cc(C(=O)Nc1ccc(Br)cn1)c(=O)n2-c1ccccc1,0.6,-4.4%,i

# (cont.)
SMILES,WNV NS2B-NS3 inh,Hsc70,MT1-MMP promoter
CCCn1c(SCC(=O)Nc2c(C)cccc2CC)nnc1C(C)C,-0.18,-5.8%,i
CCc1nnc(NC(=O)CSc2nc3c(c(=O)n2CC)SC(C)C3)s1 (stereo not given),0.92,-1.0%,i
COc1ccc2[nH]c(C)c(CN3CCC(C)CC3)c(=O)c2c1,0.78,3.8%,i
CC(=O)CN1Cc2ccccc2/C1=N\C(=O)Nc1ccccc1,0.13,-2.6%,i
Cc1ccc(S(=O)(=O)c2cc3c(=O)n4ccccc4nc3n(Cc3ccco3)c2=N)cc1C,-0.51,-8.1%,i
CCOC(=O)Cc1csc(NC(=O)CSc2nnc(-c3ccc(NS(=O)(=O)CC)cc3)o2)n1,.,-3.7%,i
CC(=O)c1cccc(NS(=O)(=O)c2ccc3c(c2)oc(=O)n3C)c1,-0.11,-0.1%,i
Cn1c(SCC2CCCO2)nnc1-c1ccncc1 (stereo not given),2.74,-8.1%,i
O=C(c1ccccc1C(=O)N1CCN(c2ccccc2)CC1)N1CCN(c2ccccc2)CC1,-0.97,-12.8%,i
COc1ccc(-c2nnc(SCC(=O)NC(C)c3ccccc3)o2)cc1OC (stereo not given),2.41,4.0%,i
CC1(C)c2ccccc2N2CC(=O)NC21/C=C/c1ccco1 (stereo not given),-0.03,-20.3%,i
O=C1CC(N(O)C2CC(=O)N(Cc3ccccc3)C2=O)C(=O)N1Cc1ccccc1 (stereo not given),-0.13,-4.5%,i
COc1cccc(C2c3c(-c4cc(Cl)c(C)cc4O)n[nH]c3C(=O)N2Cc2cccnc2)c1 (stereo not given),.,-4.0%,i
Cc1nc(SCn2nnc3ccccc3c2=O)c2c(C)c(C)sc2n1,-0.35,2.2%,i
O=C(CSc1nnc(-c2ccccc2Br)o1)N1CCN(C(=O)c2ccco2)CC1,-0.24,-2.9%,i

# One compound at a time, as listed above. Order of screens: WNV NS2B-NS3 inh | Hsc70 | MT1-MMP promoter
# Entry for CC(=O)CN1Cc2ccccc2/C1=N\C(=O)Nc1ccccc1 → 0.13 | -2.6% | i
# Entry for COc1ccc(-c2nnc(SCC(=O)NC(C)c3ccccc3)o2)cc1OC (stereo not given) → 2.41 | 4.0% | i
# Entry for COc1ccc2[nH]c(C)c(CN3CCC(C)CC3)c(=O)c2c1 → 0.78 | 3.8% | i

# Going on with the list.
SMILES,WNV NS2B-NS3 inh,Hsc70,MT1-MMP promoter
COc1ccc(C(=O)Nc2cc(C(F)(F)F)ccc2-n2cncn2)cc1,.,-4.1%,i
CCOc1ccccc1OCCn1ncc2ccc(OC)c(OC)c2c1=O,.,-3.7%,i
Cc1nnc(NC(=O)c2ccc(C)c(S(=O)(=O)N3CCOCC3)c2)s1,.,0.0%,i
CCOc1ccc2nc(COC(=O)c3ccco3)c(C(C)=O)[n+]([O-])c2c1,0.58,-6.7%,i
Oc1cnn(-c2ccccc2)c1,-0.03,-10.5%,i
CC(=O)OC1C(OC(C)=O)N(C(C)=O)C(=O)N1C(C)=O (stereo not given),-1,-2.6%,i
OC(COc1ccc2ccccc2c1)Cn1ccnc1 (stereo not given),-0.88,-2.7%,i
O=C(Nc1ccc(Cl)cc1C(=O)Nc1ccncc1)c1ccco1,-0.61,0.9%,i
CCOc1cc(NS(=O)(=O)CC)c(OCC)cc1NC(=O)c1ccco1,-0.44,-2.6%,i
O=C(NC1(C(F)(F)F)C(=O)Nc2c1c(=O)[nH]c(=O)n2-c1ccc(F)cc1)c1cccnc1 (stereo not given),.,4.6%,i
Cc1cc(C)n2c(=S)[nH]nc2n1,-1.08,-2.1%,i
Nc1nc2ccc(-c3nc4ccccc4o3)cc2s1,.,0.5%,i
CCCSc1nnc2c(n1)OC(c1cccn1C)N(C(C)=O)c1ccccc1-2 (stereo not given),-0.96,-1.8%,i
OCCN(CCO)Cc1ccc(Br)cc1,.,-0.8%,i
Cn1nc(-c2ccc(Cl)cc2)c2cc(C(=O)N3CCN(c4ccccn4)CC3)sc21,-0.45,-0.5%,i
CCN1CCCC1CNC(=O)CSc1cc(=O)n(CC)c2ccccc12 (stereo not given),-0.76,-5.0%,i
C=CCc1cccc(/C=N/n2cnnc2)c1O,-0.89,20.2%,i
CCOC(=O)c1oc2cc(O)ccc2c(=O)c1-c1ccccc1OC,-0.38,-1.7%,i
CC(=O)COc1ccc2c3c(c(=O)oc2c1C)CCCCC3,0.41,-1.6%,i
CCCCC(NC(C)=O)c1nc2ccccc2n1CCCC (stereo not given),-0.87,-1.1%,i
COc1cc(-c2n[nH]c(=O)o2)cc(OC)c1OC,-0.33,-1.9%,i
CCCn1c(N)c(Sc2ccc(Cl)cc2)c(=O)n(CCC)c1=O,-0.57,2.6%,i
COc1ccc(NC(=O)CN(C2CCCCC2)S(C)(=O)=O)cc1OC,-0.08,-0.7%,i
COCCOC(=O)c1c(C)n(C)c2ccc(OC(=O)C3CC3)cc12,-1.49,-1.2%,i
CCCCn1c(SCC(=O)NCc2ccco2)nc2ccc(N3CCOCC3)cc2c1=O,-0.16,-3.2%,i
Cn1c(NCC(O)c2ccccc2)nc2c1c(=O)n(Cc1ccc(Cl)c(Cl)c1)c(=O)n2C (stereo not given),-0.01,-1.8%,i
Cc1ccc(-c2nn(CC(N)=O)c(=O)c3ccccc23)cc1S(=O)(=O)N(C)C,.,3.1%,i
CCn1c(CSc2nc(C)cc(C)n2)nnc1SCC(=O)Nc1nc(-c2ccccc2)cs1,-0.54,0.0%,i
CCOc1ccc(NC(=O)CN2CCN(CC(=O)c3ccc(OCC)cc3)CC2)cc1,-0.5,-9.3%,i
COc1ccc(N2CCN(CCNC(=O)c3cccn4c(=O)c5ccc(Cl)cc5nc34)CC2)cc1,0.62,-5.0%,i
Cc1cc(C)nc(NC2=NCC(=O)N2c2ccccc2Br)n1,-0.24,0.7%,i
